# S aureus helic: S. aureus DNA helicase inhibition | AID 485395 | inhibition, %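 (tested at about 80 µM)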 | purified S. aureus helicase, fluorescence unwinding assay; about half of the hits fall short of the stated cut | 0.05% of 120,000 active;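 active = both duplicates at 50% or more, or one of them with a favoured structure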;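 also: 0% = mean of negative control wells and 100% = mean of positive control wells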
# MgrA DNA FP: modulators of Staphylococcus aureus MgrA DNA binding | inhibition, %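 (about 10 µg/mL by stock and volumes)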 | fluorescence polarization | 0.13% of 84,000 active;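 active = above 50% in either of two replicates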;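 also: 0% = protein plus DNA without compound and 100% = DNA alone without protein; higher means less MgrA bound to DNA so lower polarization; one replicate is shown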
# * = called active by the depositor; · = not tested or not shown; & = joins results of further samples.
SMILES,S aureus helic,MgrA DNA FP
O=C(CN1CCN(c2ccccc2Cl)CC1)NCC(F)(F)F,-13,·
Cc1ccccc1Nc1nc(N)nc(CNCCCN2CCCCCC2=O)n1,-17,·
Cc1ccc(-c2nn(-c3ccccc3)cc2/C=C2\SC(=S)N(CCCC(=O)O)C2=O)cc1,7,99*
COc1ccccc1CC(=O)NCC(c1ccco1)N1CCCCC1 (centres undefined),-14,·
OCCN1CCN(c2ncc(C(F)(F)F)cc2Cl)CC1,·,2.2
O=c1[nH]cnc2c1nnn2Cc1ccc(Cl)cc1,·,-0.4
COC(=O)c1ccc2c(=O)n(CC(C)O)c(SCc3cc(Cl)c4c(c3)OCCO4)nc2c1 (centres undefined),-1,·
Cc1cc2nc(COc3ccccc3)cc(=O)n2o1,17,·
CCN(CC)S(=O)(=O)c1ccc(N2C(=O)CC3(CCCC3)C2=O)c(Cl)c1,·,-1.3
O=C(c1ccc(Br)cc1)N1CCN(c2ccc(N3CCCCC3)nn2)CC1,6,·
O=C(O)CCc1nnc2n(CCc3ccccc3)c(=O)c3ccccc3n12,4,-0.9
Cc1cc(C)[nH]c(=S)n1,-4,·
CSc1sc(C(=O)Sc2ccccc2)c2c1S(=O)(=O)N(C)c1ccccc1-2,·,3.6
CSc1nnc(-c2ccccc2)n1-c1ccccc1,4,-0.1
CC(C)NC(=O)C1CCN(C(=O)C(C(=O)c2ccccc2)n2cc(Cl)ccc2=O)CC1 (centres undefined),4,-3.8
Clc1ccc(SCc2noc(-c3ccsc3)n2)cc1,·,1.1
COc1cccc(-c2nc(N)nc(SC)c2C#N)c1,·,0.4
CCOc1ccc(N=C2SC(C(=O)Nc3cccc(Cl)c3)CC(=O)N2C)cc1 (centres undefined),·,-0.7
CCOC(=O)c1cnc2c(C)cc(Cl)cc2c1NCc1ccccc1,0,1.2
COC(=O)c1c(NC(=O)c2ccoc2C)sc2c1CCC(C)C2 (centres undefined),10,3.0
CC(C)N(C(=O)CSc1nnc(-c2cccs2)o1)C(C)C,2,-0.7
CCn1c(C)nc2cc(-c3nnc4n3CCCCC4)ccc21,12,·
COC(=O)/C(=C(/O)CSc1n[nH]c(=O)[nH]c1=O)c1nc2ccccc2[nH]1,10,·
Oc1ccccc1/C=N/n1cnnc1,-10,0.2
CCOC(=O)CCCc1sc(N)nc1-c1[nH]c(=O)[nH]c1C,-10,·
CC1(C)CC(=O)C(C=NCC2CCNCC2)=C(O)C1,-5,·
O=S(=O)(Nc1ccc(Br)cc1)C(F)(F)F,-11,·
NNC(=O)c1ccc(COc2cc(Cl)ccc2Cl)o1,-15,-0.2
CC(C)c1nnc(NC(=O)c2ccc3ccccc3c2)s1,-5,·
CCOc1ccc2nc(SCC(=O)OC3CCCCC3)c(C)cc2c1,3,-3.6

# Continued; it opens with the 4 that closed the last part.
SMILES,S aureus helic,MgrA DNA FP
O=S(=O)(Nc1ccc(Br)cc1)C(F)(F)F,-11,·
NNC(=O)c1ccc(COc2cc(Cl)ccc2Cl)o1,-15,-0.2
CC(C)c1nnc(NC(=O)c2ccc3ccccc3c2)s1,-5,·
CCOc1ccc2nc(SCC(=O)OC3CCCCC3)c(C)cc2c1,3,-3.6
Cc1ccc(-c2cc(-c3nnco3)c3ccccc3n2)cc1,4,·
CC1CCCCN1C(=O)c1cc2c(=O)n3ccccc3nc2s1 (centres undefined),3,·
CC(=O)N(c1ccccc1)c1nc(/C=C/C(=O)N(Cc2ccco2)C2CCS(=O)(=O)C2)cs1 (centres undefined),-4,·
CCCCNC(=O)Cn1ncc2c1-c1ccccc1OC2,-21,·
O=C1CC(c2ccco2)CC(O)=C1C=NCCN1CCN(C2OC(=O)c3ccccc32)CC1 (centres undefined),-31,·
COc1cccc2c1c(NC(=O)c1nccnc1C(=O)O)nn2C,·,-4.9
CCCNC(=O)c1nnc(Cc2cccc(F)c2)o1,15,·
CN(C)C(=O)COC(=O)c1c2c(nc3ccccc13)CCCCC2,5,·
CC1(C)NCCC12C(=O)N(Cc1ccccc1)c1ccccc12 (centres undefined),8,-0.5
O=C1NC(=S)S/C1=C\c1cc(Cl)cc(Cl)c1O,·,3.8
O=C(Nc1cccnc1)c1nn(-c2ccccc2)c(=O)c2ccccc12,6,·
COc1ccc(C2=NCCc3sccc32)cc1,·,-1.0
O=C1CCCN1Cc1ncnn1-c1ccccc1,-5,3.5
Cc1nc2cc(C(F)(F)F)ccc2n1C,1,-1.4
Cc1ccc(S(=O)(=O)N2CCn3c2nc2ccccc23)cc1,6,-1.3
Cc1c(Cl)cccc1S(=O)(=O)Nc1ccnn1C,·,-1.5
COc1ccccc1NC(=O)Nc1n[nH]c(-c2ccccc2)n1,-1,·
CCCN(CC(=O)Nc1ccc(Cl)cc1Cl)CN1C(=O)NC2(CCCC2)C1=O,17,·
COc1ccccc1C(=O)OC1OCCOC1OC(=O)c1ccccc1OC (centres undefined),-1,·
COc1ccc(/C=C/C(=O)OC2CCCCC2)cc1,7,-1.2
C/C(=C/C(=O)O)C(=O)Nc1ccc(C)cc1,-5,·
Cc1c(CCCN)c2ccccc2n1Cc1ccccc1,-9,·
CCC(=O)c1cc(F)ccc1O,4,-0.7
CNC(=O)NC(=O)C(C)N1CCc2ccccc2C1 (centres undefined),-3,·
COc1cc(NS(=O)(=O)c2cc(Cl)c(Cl)cc2Cl)c(OC)cc1Cl,·,-3.0
O=C(Nc1cc(C(F)(F)F)ccc1F)C1CCC1,14,1.4
O=C(COC(=O)c1cccs1)Nc1c(F)c(F)c(F)c(F)c1F,0,1.0
CCc1cc2c(=O)c(Oc3ccc(F)cc3)coc2c(CN(C)C)c1O,-6,·
COc1ccc(NC(=O)CCc2c(C)nc3cc(-c4ccc(OC)cc4OC)nn3c2C)cc1,5,·
Cc1ccnc(NS(=O)(=O)c2ccccc2)n1,6,-0.3
Cc1ccc(CS(=O)Cc2ccc(C(=O)N3CCC(C(N)=O)CC3)o2)cc1 (centres undefined),5,·
Brc1ccc(CSc2c[nH]c3ccccc23)cc1,4,1.9
CSc1ncc(Cl)c(C(=O)Oc2ccccc2F)n1,-15,·
O=C(CSc1nnc(-c2ccco2)o1)c1cc2c3c(c1)CC(=O)N3CCC2,-16,·
COc1ccc2c(c1)sc(=NC(=O)CSCC(=O)NC1CCCCC1)n2C,-18,·
COCC(=O)Nc1ccc2nc3n(c(=O)c2c1)CCCCC3,-5,·
CCn1cc(Br)c(C(=O)N2CCN(c3ccccc3)CC2)n1,-7,1.1
O=c1nccc(NCc2ccco2)[nH]1,-7,1.1
Cc1nc2ncnn2c(C)c1CCC(=O)N1CCCCC1,-12,0.9
N#CCSc1n[nH]c(=O)n1-c1ccc(Cl)cc1,·,-2.5
Cc1cccc2cc(C(c3nnnn3Cc3ccccc3)N3CCN(C(=O)c4ccco4)CC3)c(=O)[nH]c12 (centres undefined),-4,4.8
CNC(=S)NNc1nc(N2CCOCC2)nc(N2CCOCC2)n1,4,·
CC(Sc1nnc(-c2cccnc2)o1)C(=O)c1ccccc1 (centres undefined),·,-0.9
Cc1ccc(CCNC(=O)c2cccc3c2SCCC3=O)cc1,6,1.2
CN(C)CCCNc1ncnc2c1cnn2-c1ccccc1,-17,·

# Reformatted tab-delimited: 5 of the compounds above.
Molecule	S aureus helic	MgrA DNA FP
N#CCSc1n[nH]c(=O)n1-c1ccc(Cl)cc1	·	-2.5
Cc1cccc2cc(C(c3nnnn3Cc3ccccc3)N3CCN(C(=O)c4ccco4)CC3)c(=O)[nH]c12 (centres undefined)	-4	4.8
CNC(=S)NNc1nc(N2CCOCC2)nc(N2CCOCC2)n1	4	·
CC(Sc1nnc(-c2cccnc2)o1)C(=O)c1ccccc1 (centres undefined)	·	-0.9
Cc1ccc(CCNC(=O)c2cccc3c2SCCC3=O)cc1	6	1.2

# (listing goes on)
SMILES,S aureus helic,MgrA DNA FP
Cc1cc(=O)oc2cc(OCC(=O)N3CCCC3)c(Cl)cc12,3,·
Cc1ccsc1CN1CCN(Cc2ccccc2)CC1,3,3.4
O=S(=O)(CCN1CCOCC1)c1ccc(OC(F)(F)F)cc1,·,-0.4
Cn1cccc1/C=C/C(=O)OCC(=O)c1ccc(Cl)s1,-5,·
C=CCn1c(=N)n(CC(O)COc2ccc(C)cc2)c2ccccc21 (centres undefined),9,1.9
C=CCNC(=O)C1C2C=CC(O2)C1C(=O)O (centres undefined),22,2.2
O=C(COC(=O)Cc1ccc(Cl)cc1)NC1CCCCCC1,1,-0.9
O=C(NC1CC1)c1ccc2c(c1)NC(=O)c1ccccc1S2,5,·
CC(=O)Nc1ccc(Nc2nc(-c3ccccc3)c3cc(Br)ccc3n2)cc1,8,-1.7
CC(OC(=O)C1CC2CCCC(C1)C2=O)c1nnc(-c2ccccc2)o1 (centres undefined),2,·
O=C(O)Cc1cnc(-c2ccc(F)cc2)o1,7,·
CCn1c(O)c(N=NC(=O)Nc2ccc(Cl)c(Cl)c2)c2ccccc21,13,·
O=C(CCS(=O)(=O)c1ccc(Cl)cc1)NC1CCCC1,-5,·
CCNS(=O)(=O)c1ccc(Cl)cc1I,·,-1.0
Nc1nc(N)nc(SCC(=O)N2N=C(c3ccc4ccccc4c3)CC2c2ccccc2)n1 (centres undefined),-3,·
COc1ccc(-c2nc(N)n(C(=O)c3ccco3)n2)cc1,14,0.1
CC(Sc1nnc(-c2c[nH]c3ccccc23)n1C)c1ccccc1 (centres undefined),3,·
Cc1ccnc2nc(C(=O)NCCN3C(=O)S/C(=C\c4ccc5c(c4)OCO5)C3=O)nn12,-20,·
CCOc1ccc(S(=O)(=O)N(CC(=O)N2CCCCC2)c2ccccc2)cc1,-2,0.3
Cc1ccc(-c2nnc(Sc3nc4ccccc4o3)c3ccccc23)cc1,8,0.6
N#Cc1ccc(N2Cc3ccccc3C2=NC(=O)c2cccs2)cc1,17,-1.5
COC(=O)c1scc(C)c1N1C(=O)C=CC1=O,·,-5.4
COc1cc(N=Cc2ccc3c(c2)OCO3)c(OC)cc1Cl,·,2.3
C=CC[n+]1cc(-c2ccccc2)n2c1CCCCC2,7,-1.9
O=C(NCC1CCN(Cc2ccccc2F)CC1)Nc1ccccc1F,36,·
CCn1c(=S)[nH]c2ccccc2c1=O,4,0.2&-0.4
COC(=O)c1[nH]nc2c1C(=O)N(C1CCCCC1)C2=O,18,0.2
Cc1cc(Br)c2c(c1)C(O)(C1C(=O)Nc3ccccc31)C(=O)N2C (centres undefined),4,-1.4
Cc1ccc(-n2c(C3CC3)n[nH]c2=S)c(C)c1,-31,·
Cc1nn(C)c2ncc(C(N)=O)c(Oc3cccnc3)c12,·,1.8

# Structures listed so far that bear a hit mark in MgrA DNA FP:
SMILES,S aureus helic,MgrA DNA FP
Cc1ccc(-c2nn(-c3ccccc3)cc2/C=C2\SC(=S)N(CCCC(=O)O)C2=O)cc1,7,99*

# The results go on.
SMILES,S aureus helic,MgrA DNA FP
COc1ccc(OC)c(NC(=O)CSc2nc3nc(C)c(Cc4ccccc4)c(C)n3n2)c1,12,0.6
O=C(O)/C=C/c1ccc(S(=O)(=O)N2CCN(CCN3C(=O)C4C5C=CC(C5)C4C3=O)CC2)cc1 (centres undefined),·,-0.1
O=C(O)c1ccc(/C=N/n2cnnc2)cc1,-20,1.1
CNC(=O)[C@H](Cc1c[nH]c2ccccc12)NC(=O)[C@@H](CC(=O)NO)CC(C)C,·,-0.1
COc1ccc(-n2cc3c(=O)n(C)c(=O)n(C)c3c2)cc1,11,·
CC(C)c1nc(=S)[nH][nH]1,-1,·

# Entries shown so far that have two or more sulfur atoms, in the order listed:
SMILES,S aureus helic,MgrA DNA FP
Cc1ccc(-c2nn(-c3ccccc3)cc2/C=C2\SC(=S)N(CCCC(=O)O)C2=O)cc1,7,99*
CSc1sc(C(=O)Sc2ccccc2)c2c1S(=O)(=O)N(C)c1ccccc1-2,·,3.6
Clc1ccc(SCc2noc(-c3ccsc3)n2)cc1,·,1.1
CC(C)N(C(=O)CSc1nnc(-c2cccs2)o1)C(C)C,2,-0.7
CC(=O)N(c1ccccc1)c1nc(/C=C/C(=O)N(Cc2ccco2)C2CCS(=O)(=O)C2)cs1 (centres undefined),-4,·
O=C1NC(=S)S/C1=C\c1cc(Cl)cc(Cl)c1O,·,3.8
COc1ccc2c(c1)sc(=NC(=O)CSCC(=O)NC1CCCCC1)n2C,-18,·

# Screening data: PubChem, ICCB-Longwood Screening Facility, Harvard Medical School

# Only part of the results is shown (hit frequency here may not be typical).
